CapD inh = Bacillus anthracis CapD inhibitors, primary screen, biochemical, fluorescence intensity; CapD gamma-glutamyltranspeptidase (Bacillus anthracis Ames Ancestor); purified CapD enzyme, fluorescence intensity read-out; active compounds read low; some hits fall short of the stated cut; z-score (concentration not given with the values); 0.23% of 140,000 active; AID 492967, 2010;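 active = z-score under -4 in either of two replicates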;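 also: stock transfer was 100 nL into about 40 µL; score is relative to mean and spread of the plate; one replicate is shown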
AID504770 = growth inhibition of E. coli YBA685, primary screen, V. cholerae RctB inhibitors | z-score (concentration not given with the values) | 0.27% of 130,000 active | E. coli YBA685 rctB-dependent plasmid, OD600 growth, 3 h; active compounds read low | AID 504770, 2011;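 active = z-score under -2 on both plates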;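 also: wells of about 30 µL received 100 nL stock; score is relative to mean and SD of the test wells; the first replicate is given; strong numbers were not always called active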
Active calls of the source: *; · = not tested or not shown.

compound,CapD inh,AID504770
CCOC(=O)c1c(NC(=O)c2cc(OC)c(OC)c(OC)c2)sc(C(=O)Nc2ccc(C)c(Cl)c2)c1C,-0.46,·
O=C(CCC1COc2ccccc2O1)Nc1ccccn1 (stereo not drawn),-0.46,-0.95
COc1ccc(CN2C(=O)CC(C(N)=O)SC2=Nc2ccccc2)cc1 (stereo not drawn),0.075,-0.4
COC(=O)COc1ccc2c(c1)C(=NO)c1cc(OCC(=O)OC)ccc1-2,0.13,-0.05
Cc1cc(NS(=O)(=O)c2ccc(N=Cc3ccccc3O)cc2)no1,2.1,-0.5
Cn1nccc1NC(=S)Nc1ccc(Cl)cc1,0.85,0.35
CCOc1ncccc1C(=O)OCc1cc(C(=O)OC)c(C)o1,·,1.6
CN(C)C1c2cccc3cccc(c23)C1NS(=O)(=O)c1ccc(Cl)cc1 (stereo not drawn),-0.78,·
Cc1csc2nc(-c3ccccc3)cn12,0.005,-0.3
CCc1ccc(NC(=O)CC(C)S(=O)(=O)c2ccc3c(c2)CCN3C(C)=O)cc1 (stereo not drawn),-0.095,-0.4
O=S(=O)(c1ccc(Br)s1)N1CCN(Cc2ccccc2)CC1,-0.1,-0.45
COC(=O)C1=C(C)NC2=C(C(=O)CC(c3ccc(OC)cc3)C2)C1c1cccc2ccccc12 (stereo not drawn),33,0.45
O=c1c2c3c(sc2n2cnnc2n1Cc1ccccc1)CCCC3,0.47,1.6
Clc1ccc2c(N3CCCC3)ccnc2c1,·,-0.8
CS(=O)(=O)N1Cc2ccccc2CC1C(=O)Nc1cc(Cl)ccc1N1CCOCC1 (stereo not drawn),·,0.65

Structural class: those above with a Cl atom (five)
compound,CapD inh,AID504770
CCOC(=O)c1c(NC(=O)c2cc(OC)c(OC)c(OC)c2)sc(C(=O)Nc2ccc(C)c(Cl)c2)c1C,-0.46,·
Cn1nccc1NC(=S)Nc1ccc(Cl)cc1,0.85,0.35
CN(C)C1c2cccc3cccc(c23)C1NS(=O)(=O)c1ccc(Cl)cc1 (stereo not drawn),-0.78,·
Clc1ccc2c(N3CCCC3)ccnc2c1,·,-0.8
CS(=O)(=O)N1Cc2ccccc2CC1C(=O)Nc1cc(Cl)ccc1N1CCOCC1 (stereo not drawn),·,0.65

(cont.)
compound,CapD inh,AID504770
COc1ccc(N2C(=O)/C(=C/c3cc(OC)c(O)c(OC)c3)C(=O)NC2=S)cc1,-1.7,·
CCC(CC)NS(=O)(=O)c1cccs1,-0.34,-0.85
Cc1ccc(C)c(S(=O)(=O)N/N=C/c2ccc(N(C)C)cc2)c1,·,0.75
COc1cccc(C(=O)CC#N)c1,·,-0.65
COCCNC(=O)c1sc2ncnc(N3CCN(c4ccccc4)CC3)c2c1C,-0.47,·
O=C(COCc1cc(-c2ccc(F)cc2)on1)NCc1cccs1,0.47,-0.05
COc1cccc(-c2cn3c4c(=O)n(C)c(=O)n(C)c4nc3n2Cc2ccccn2)c1,0.1,·
COC(=O)c1c(-c2ccccc2)csc1NC(=O)CCN1CCC(C)CC1,-0.08,-0.25
CC(C)(C)OC(=O)N(C/C=C/c1ccccc1)CCOC(=O)NC1CCN(Cc2ccccc2)C1 (stereo not drawn),0.045,·
Cc1ccc(S(=O)(=O)NCCSc2cc(C(F)(F)F)nc3ccccc23)cc1,-0.55,0.4
Cc1ccc(-n2nc3ccc(N)cc3n2)cc1,28,-0.2
Cc1ccc(C)c(OC(=O)c2ccc(N3CCCC3=O)cc2)c1C,·,-0.05
CCOc1ccc(N2C(=O)C3C4c5ccccc5C(C=Nc5ccccc5C(=O)O)(c5ccccc54)C3C2=O)cc1 (stereo not drawn),5.9,·
COc1ccc(-c2cn[nH]c2N)cc1OC,0.2,0.85
Cc1noc(C(F)(F)F)c1-c1nc(-c2cccc(C(F)(F)F)c2)no1,0.055,-0.6

4 entries from above, with each value named:
molecule: CCC(CC)NS(=O)(=O)c1cccs1
  CapD inh = -0.34
  AID504770 = -0.85

molecule: Cc1ccc(C)c(S(=O)(=O)N/N=C/c2ccc(N(C)C)cc2)c1
  CapD inh = ·
  AID504770 = 0.75

molecule: COc1cccc(C(=O)CC#N)c1
  CapD inh = ·
  AID504770 = -0.65

molecule: COCCNC(=O)c1sc2ncnc(N3CCN(c4ccccc4)CC3)c2c1C
  CapD inh = -0.47
  AID504770 = ·

Continued:
compound,CapD inh,AID504770
CSc1nnc(SC)n1CCNS(=O)(=O)c1cccc(Cl)c1,-0.34,-0.05
CCOC(=O)c1cnn(-c2ccccc2)c1NC(=O)Nc1cccc(Cl)c1,0.17,-0.3
CCCS(=O)(=O)N1CCCC(C(=O)N2CCN(c3ccccc3)CC2)C1 (stereo not drawn),-0.065,2.1
COc1ccc(CCNC(=O)C2CCCNC2=O)cc1OC (stereo not drawn),0.3,-0.1
O=C(c1cccc(Cl)c1)N1CCN(S(=O)(=O)c2ccc(Cl)s2)CC1,·,1
O=C(c1cccc(Br)c1)N1c2ccccc2Sc2ccccc21,0.49,·
N#Cc1cccc(OCC(=O)NCC(F)(F)F)c1,·,-0.05
Cc1ccc(-n2ncc3c(=O)n(CC(=O)N(C)C)cnc32)cc1,·,0.15
COc1ccc(N2C(=O)CC(SC(N)=Nc3ccccc3)C2=O)cc1 (stereo not drawn),-0.22,-0.25
COc1ccc(Cl)cc1S(=O)(=O)n1ccnc1,·,0.4
CC1S/C(=N\NC(=O)CNc2cccc(Cl)c2)N(c2ccccc2)C1=O (stereo not drawn),·,-0.3
O=C(Cc1ccc(Oc2ccccc2)cc1)c1ccccc1,-0.17,-0.1
CC(NC(=O)CN1CCN(C(=O)c2cccs2)CC1)c1ccc(F)cc1F (stereo not drawn),·,-0.3
Cn1nc(N)c2cc(S(C)(=O)=O)c(-c3ccc(Cl)cc3)nc21,-0.87,·
COc1ccc(-n2ncc3c(NCCC4=CCCCC4)ncnc32)cc1,·,0.5

Carrying on:
Values run as follows: CapD inh | AID504770
COc1cccc(N2C(=O)C3C4C=CC(C(OC(C)=O)OC(C)=O)(O4)C3C2=O)c1 (stereo not drawn)
 : -0.15 | ·
O=C1Nc2ccccc2S(=O)(=O)N1Cc1ccccc1
 : -0.07 | 0.7
Cc1cc(=O)[nH]c(NNC(=O)NC2CCCCC2)n1
 : · | -1.8
NC(=O)CSc1ncnc2sc(-c3ccccc3)cc12
 : · | -0.05
O=C(CSc1nnc(-c2ccncc2)n1Cc1ccco1)N(c1ccccc1)c1ccccc1
 : · | -0.15
COc1ccc(-c2cnn(Cc3ccccc3)c2)cc1
 : -1.1 | ·
CC(=O)NC(=O)c1cccc2cccc(I)c12
 : -0.79 | -0.5
Cc1nnc(SCC(=O)Nc2cc(C(F)(F)F)ccc2N2CCOCC2)n1C1CC1
 : · | -0.1
CC(=O)Oc1ccc([C@@H]2[C@@H](C(C)=O)N3c4ccccc4C=C[C@@H]3C2(C#N)C#N)cc1
 : 1.6 | ·
COc1cccc(-n2c(/C=C3\C(=O)N(C)c4ccc(Br)cc43)nc3ccccc3c2=O)c1
 : -0.18 | ·
Cc1ccc(C(=O)OC(c2ccccc2)c2nccc3ccccc23)cc1 (stereo not drawn)
 : 0.61 | 1
Cc1cc(OCC(=O)Nc2ccc(N3CCN(C(=O)c4ccco4)CC3)cc2)cc(C)c1Cl
 : 0.05 | -0.3
O=c1[nH]c(CSc2nnc(-c3cccnc3)n2-c2ccccc2)nc2ccccc12
 : 0.6 | -0.6
Cc1ccc2nc(-c3ccc(C)o3)c(Nc3ccc4c(c3)OCO4)n2c1
 : 26 | 1
CC1=C(c2ccc(C)cc2)S(=O)(=O)NC1=NC(C)C12CC3CC(CC(C3)C1)C2 (stereo not drawn)
 : 0.46 | 0.6
O=C(O)CNC(=O)c1cc(C(F)(F)F)cc(C(F)(F)F)c1
 : 0.005 | 0.2
CC1=C(C(C)C)Nc2nnnn2C1c1ccc(Br)cc1 (stereo not drawn)
 : · | 1.4
COC(=O)c1cc2c(-c3cccs3)nn(-c3ccccc3)c2n1Cc1cccc(C)c1
 : 0.02 | 0.8
CC(C#N)Sc1nc(C2CCCCC2)n(-c2ccccc2)n1 (stereo not drawn)
 : · | -0.15
CC(C)(C)OC(=O)NC1CCN(S(=O)(=O)c2ccc(Cl)cc2)CC1
 : 13 | -0.05
Cc1ccc(Nc2cc3oc4cc(C)ccc4[nH]c3c3c(=O)c4ccccc4c(=O)c23)cc1
 : -0.29 | ·
CCOc1ccc(C(=O)N2CCC(Cc3ccccc3)CC2)cc1
 : -0.15 | -0.95
O=C(O)CN(Cc1ccccc1)Cc1ccccc1
 : -0.71 | 1.5
Clc1ccc(-n2ccc3ccccc32)cc1
 : · | -0.55
O=C(c1nc2ncccn2n1)N1CCN(C(c2ccccc2)c2ccccc2)CC1
 : · | 0
CCCCC(CC)C(=O)Nc1nnc(C(C)C)s1 (stereo not drawn)
 : · | -0.25
Clc1ccc2c(c1)c1nc3ccccc3nc1n2Cc1nc2ccccc2o1
 : 0.66 | -0.35
COc1cc(-c2noc(C)n2)cc(OC)c1OC
 : -0.025 | -1.2
NNC(=O)CSc1c(-c2cccs2)[nH]c2ccccc12
 : · | 0.1
CCSc1nc(-c2ccccc2)cc(C)c1C#N
 : 30 | 1.4

(more compounds)
Values run as follows: CapD inh | AID504770
COC(=O)C1=C(C(=O)OC)SC(=C2C(=S)C(C)(C)N(C(=O)CN3C(=O)c4ccccc4C3=O)c3ccc(C)cc32)S1
 : 0.55 | ·
O=C(CN1CCN(c2ccccc2Cl)CC1)NC(=O)Nc1ccccc1F
 : · | 0.5
CCOC(=O)N1CCN(C(=O)CCN2c3ccccc3Sc3ccccc32)CC1
 : · | -0.2
COc1cc(/C=C(\C#N)c2ccc(Cl)cc2)ccc1OC(=O)C1COc2ccccc2O1 (stereo not drawn)
 : 5.2 | 0
CCOc1ccc(Nc2ncnc3nc[nH]c23)cc1
 : 0.26 | 0.65
CCN(CC)C(=O)Cn1ncc2c1-c1cc(C)ccc1OC2
 : 0.2 | 0.2
CCOc1ccc(-n2c(N)c(C(=O)N3CCN(C)CC3)sc2=S)cc1
 : 0.26 | 0.45
COC(=O)c1ccsc1NC(=O)/C=C\C(=O)O
 : · | -0.4
Nc1nc(NCc2c(F)cccc2Cl)nn1-c1ccccc1
 : -1.4 | 2.8
CN1CCC(=NOC(=O)c2ccc(Cl)cc2)CC1
 : -0.02 | -1.4
COc1ccc(-n2c(Nc3nc(C)cc(C)n3)nc(C)cc2=O)cc1
 : 0.29 | ·
Cc1cc(C(=O)N2CCNCC2)c(-c2ccccc2)o1
 : 0.64 | -0.1
Cc1nn(C2CCS(=O)(=O)C2)c(Cl)c1/C=C/C(=O)OCc1csc(-c2ccccc2)n1 (stereo not drawn)
 : · | 1.4
CC(C)c1nc2ccccc2c2c1C(=O)N(C(CC(=O)OC(C)(C)C)C(=O)OC(C)(C)C)C2=O (stereo not drawn)
 : 0.14 | ·
O=C1c2ccccc2S(=O)(=O)NN1CC(=O)N1CCCc2ccccc21
 : · | -0.1
O=C(Nc1ncc(Cc2ccc(F)cc2)s1)c1csc2c1CCCC2
 : 0.21 | ·
C=CCSc1nnc(-c2cc(C(C)(C)C)c(O)c(C(C)(C)C)c2)s1
 : 4 | ·
COC(=O)Cn1ncc2c3ccccc3n(Cc3ccccc3F)c2c1=O
 : 1.6 | 1.4
COc1ccc(NC(=O)C2CCCNC2=O)cc1 (stereo not drawn)
 : -0.065 | 0.2
O=c1cc(N2CCCC2)c2ccccc2o1
 : -0.95 | -0.8
O=C(O)C1CC(=O)N(Cc2ccccc2)C(=Nc2ccc(F)cc2)S1 (stereo not drawn)
 : 0.72 | 0.75
N#CC1=C(N)N(c2ccc(S(N)(=O)=O)cc2)C2=C(CCC2)C1(C(F)(F)F)C(F)(F)F
 : 70 | -0.15
COC(=O)c1cn(C(=O)c2ccco2)c2ccccc12
 : 0.34 | 2
O=c1c(O)c(-c2ccc(O)cc2)oc2cc(O)cc(O)c12
 : -0.94 | ·
COc1ccccc1N=C(NO)C(=Nc1ccccc1OC)NO
 : 0.42 | -0.3
Cc1cccc(NC(=O)CCCN2C(=O)/C(=C/c3cccs3)SC2=S)c1C
 : -0.07 | 0.85
CN(C)S(=O)(=O)c1ccc(C(=O)OCC2CCCO2)cc1 (stereo not drawn)
 : · | 0.3
OCc1cn(-c2ccccc2)nc1-c1ccccc1
 : -0.3 | 1.4
CS(=O)(=O)NNc1c(Cl)cc(Cl)cc1Cl
 : -0.1 | ·
CC(C)(C)c1ccc(-c2noc(CSc3n[nH]c(=O)n3C3CC3)n2)cc1
 : -0.32 | -0.7

(list continues)
Values run as follows: CapD inh | AID504770
COC(=O)c1ccc(Oc2c([N+](=O)[O-])cc(C(F)(F)F)cc2[N+](=O)[O-])cc1
 : -0.1 | ·
O=C(c1ccc(-c2cccc(C(F)(F)F)c2)o1)N1CCOCC1
 : · | 0.05
Cn1nccc1NC(=O)CCC(=O)O
 : -0.025 | -1.2
O=C(NNc1ccc(F)cc1)c1cc(Cl)nc(OCC(F)(F)F)c1
 : 0.64 | -0.15
CN(C)c1ccc(/C=C/C(=O)C(C(=O)c2ccccc2)=C2SCCS2)cc1
 : -3.5 | 0.45
COC(=O)/C=C/C(=C\Nc1ccc(F)cc1)S(=O)(=O)c1ccccc1
 : -0.52 | ·
Cc1ccc(C(=O)NC2CCCCCCC2)cc1I
 : 7.2 | -0.75
CC(C)NC(=O)CSc1nnc(CSc2cc(C(F)(F)F)nc3ccccc23)n1C
 : -0.78 | 1.5
CC(C)S(=O)(=O)/C(C#N)=C/N1CCC(C(F)(F)F)CC1
 : 8.8 | 2.7
COc1ccc(/C=C2\CCc3ccccc3C2=O)c(Cl)c1OC
 : 0.05 | ·
Cc1ccc2cc(CCNC(=O)Cc3cccs3)c(=O)[nH]c2c1
 : 1.9 | -0.9

The order is random. Share with any hit: about 0.41%.
